# HPGD block – inhibitors of human 15-hydroxyprostaglandin dehydrogenase (HPGD); purified HPGD, NADH fluorescence kinetic, PGE2 substrate; actives 4.3% (n = 150,000); Potency, µM, for inactives: top-dose activity change, negative = inhibition, usual class: inhibitors; P15428; AID 894; active = well fitted inhibition curve with a large enough effect (not every such curve was filed as active); inconclusive = small, poorly fitted or top-dose-only effect, or another doubt; inactive = no such curve, though single readings can be large or run the other way;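 note: top concentration of the series not given in the record; plate controls included wells without enzyme; inactives centre near -10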
# Target sequence (P15428 whole entry, looked up): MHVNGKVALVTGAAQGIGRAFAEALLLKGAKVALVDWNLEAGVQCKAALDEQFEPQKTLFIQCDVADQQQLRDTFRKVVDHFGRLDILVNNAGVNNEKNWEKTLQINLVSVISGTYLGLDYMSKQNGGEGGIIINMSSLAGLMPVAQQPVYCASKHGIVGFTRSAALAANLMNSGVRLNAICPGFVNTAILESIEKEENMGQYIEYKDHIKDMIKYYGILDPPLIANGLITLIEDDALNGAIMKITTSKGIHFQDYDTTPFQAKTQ
#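 NADH formation kinetics: reaction with 30 uM PGE2 and 1 mM NAD+ (final), 20 nM enzyme, Tris-HCl pH 8 with Tween 20, after 15 min compound preincubation at room temperature. Fluorescence change, last versus first of five reads.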
# The depositor's hits bear a star; u = inconclusive. % is set by controls: 0 for no effect and ±100 for the full control effect; potency is the fitted concentration of half-maximal effect. Only part of the results is shown. The share of hits here may be higher or lower than overall.
SMILES,HPGD block
CCc1ccc(NS(=O)(=O)c2ccc3[nH]cc(C(=O)N4CCc5ccccc54)c(=O)c3c2)cc1,-24.1%
Cn1nc(-c2ccc(C(=O)N3CCN(Cc4ccccc4)CC3)cc2)c2ccccc2c1=O,15.8µM*
O=C(Cc1ccccc1)Nc1ccc(CN2CCOCC2)cc1,-12.4%
CCc1ccc(NC(=S)NC2CC3CCC(C2)N3Cc2ccco2)cc1 (stereo not given),-10.4%
O=C(Nc1ccccc1)/C(=C/c1cccc(Br)c1)NC(=O)c1ccco1,-17.1%
CCOC(=O)C1=C(O)/C(=C/c2ccc(OCC(=O)O)c(OC)c2)SC1=Nc1ccc(OCC)cc1,-27.4%
COCCn1c(-c2ccc(OC)cc2)nc2oc3cc(OC)ccc3c(=O)c2c1=O,-28.4%
Cc1cc(C)cc(OCC(=O)NC2=NCCS2)c1,-3.0%
S=c1[nH]nc(-c2cccnc2)n1Cc1ccccc1,-27.4%
N#CCSc1nnc(Nc2ccccc2)s1,28.2µM*
COc1cccc(C(=O)Nc2cc([N+](=O)[O-])ccc2N2CCN(C)CC2)c1,-10.2%
O=S(=O)(c1cnc[nH]1)N1CCN(c2ccccc2)CC1,-5.3%
CCc1cccc(CC)c1NC(=O)COC(=O)CCc1cc(OC)c(OC)c(OC)c1,-13.9%
COC(=O)C/C=C1\c2ccc3c(c2[C@@H](OC)[C@@H]1C)OCO3,-7.0%
COc1ccccc1C1CC(=O)Oc2cc3c(cc21)OCO3 (stereo not given),-18.0%
CC(C)C/C(O)=C/c1nc2cc(Cl)ccc2oc1=O,-13.4%
O=C(Nc1ccncc1)c1ccccc1F,-8.0%
O=C(CSCc1ccc(F)cc1)Nc1nc2c(s1)CCCC2,-12.2%
C=CCNC(=O)C1CC(=O)N(c2ccc(OCC(=O)Nc3ccc(C)cc3)cc2)C1 (stereo not given),-14.0%
CCSc1ccccc1C(=O)N1CCCC1,-10.0%
Cn1c(=O)c2c(nc(OCc3cccnc3)n2Cc2ccccc2)n(C)c1=O,-21.4%
Oc1ccccc1CNCCCNCc1ccccc1O,-6.1%
Cc1cccc(Nc2nc(N)nc(CN3CCN(c4ccccc4)CC3)n2)c1,-3.8%
Cc1cc(NC(=O)CCCC(=O)OCC(F)(F)C(F)F)cc(C)c1C(=O)O,-7.9%
COc1ccc(OC)c(NC(=O)N[C@@H](Cc2ccccc2)C(=O)O)c1,2.1%

# (further entries)
SMILES,HPGD block
O=C(O)[C@H]1NCCC[C@H]1C(=O)O,-12.9%
Cn1nccc1C(=O)Nc1ccc(OC(=O)c2ccnn2C)cc1,-2.7%
O=C1CSC(=S)N1/N=C\c1ccc(Cl)c([N+](=O)[O-])c1,-18.3%
Cc1cccc(N2CCN(C(=O)CCn3c(=S)[nH]c4cc5c(cc4c3=O)OCO5)CC2C)c1 (stereo not given),-13.4%
COC(=O)c1cccc(NC(=O)C2C3CCC(C3)C2C(=O)O)c1 (stereo not given),u
O=C(CSc1ccc(Cl)cc1)Nc1ccc(-c2nc3ccccc3[nH]2)cc1,u
C=CCNc1ncnc2c1cnn2-c1ccc(Cl)cc1,-24.7%
CCOC(=O)C(NC(C)=O)C(OC(C)=O)c1cccc([N+](=O)[O-])c1 (stereo not given),-2.3%
Cc1cnc(C(=O)Nc2ccc(F)c(F)c2)cn1,-20.1%
Cc1nn(CC(C)C)c(=S)[nH]c1=O,-10.2%
O=C(CNC(=O)Cc1ccccc1)NCC(=O)OCc1ccccc1,-11.8%
CC(C)c1nnc(NC(=O)Cc2cccs2)s1,-13.4%
COc1cccc(S(=O)(=O)Nc2ccc(C(=O)Nc3ccncc3)cc2)c1,-10.9%
COc1ccc(CNC(=O)C2CCCN2S(=O)(=O)c2ccccc2)cc1 (stereo not given),-8.3%
c1cncc(-c2cncnc2-n2ccnc2)c1,-1.3%
CCOC(=O)c1c(C(=O)OCC)c(C)n(N2C(=O)CSC2=S)c1C,-14.3%
CCc1ccc(NCc2cc3c(C)nn(-c4ccccc4)c3[nH]c2=O)cc1,-13.5%
CCOC(=O)C1=C(c2ccccc2)OC(N)=C(C#N)C1C1CCCCC1 (stereo not given),-15.0%
CCCN(CC(=O)Nc1ccc(C)cc1Br)CC(=O)Nc1ccc(F)c(F)c1F,-15.2%
COCCn1c(=O)[nH]c2cc(C(=O)NCCN3CCN(c4cccc(Cl)c4)CC3)ccc2c1=O,-5.2%
COc1ccc(C(=O)N2CCC[C@@]3(CCN(c4ccccn4)C3)C2)cc1,-16.8%
CCOC(=O)c1cccc(NC(=O)CSc2nnnn2C)c1,-0.3%
CCc1nc(C)ccc1OC(=O)C12CC3CC(CC(C3)C1)C2,-21.3%
Cc1ccc(NS(=O)(=O)c2cc([N+](=O)[O-])ccc2NNC(=S)Nc2cc(C)ccc2C)c(C)c1,7.94µM*
CCCC1CC(C)(C(=O)Cn2[nH]c(=O)ccc2=O)OC1=O (stereo not given),-2.9%

# Another view of 6 compounds above:
SMILES	HPGD block
COC(=O)C/C=C1\c2ccc3c(c2[C@@H](OC)[C@@H]1C)OCO3	-7.0%
COc1ccccc1C1CC(=O)Oc2cc3c(cc21)OCO3 (stereo not given)	-18.0%
CC(C)C/C(O)=C/c1nc2cc(Cl)ccc2oc1=O	-13.4%
O=C(Nc1ccncc1)c1ccccc1F	-8.0%
O=C(CSCc1ccc(F)cc1)Nc1nc2c(s1)CCCC2	-12.2%
C=CCNC(=O)C1CC(=O)N(c2ccc(OCC(=O)Nc3ccc(C)cc3)cc2)C1 (stereo not given)	-14.0%

# The listing picks up, repeating the three entries before the break.
SMILES,HPGD block
CCc1nc(C)ccc1OC(=O)C12CC3CC(CC(C3)C1)C2,-21.3%
Cc1ccc(NS(=O)(=O)c2cc([N+](=O)[O-])ccc2NNC(=S)Nc2cc(C)ccc2C)c(C)c1,7.94µM*
CCCC1CC(C)(C(=O)Cn2[nH]c(=O)ccc2=O)OC1=O (stereo not given),-2.9%
COc1ccc(OC)c(S(=O)(=O)NCc2cn3cccc(C)c3n2)c1,2.1%
C=CCNC(=O)c1ccc(N(C)S(=O)(=O)c2ccc(OC)cc2)cc1,2.82µM*
O=C(Oc1cccc2c(OC(=O)N3CCCC3)cccc12)N1CCCC1,-25.9%
Cc1ccc(C(C(=O)NC2CCCC2)N2CCCC(C)C2)cc1 (stereo not given),-18.4%
CC(C)c1ccc2nc3sc(C(=O)N4CCc5ccccc5C4)c(N)c3cc2c1,15.8µM*
CC1=NN(c2ccc([N+](=O)[O-])cc2)C(=O)C1[N+](=O)[O-] (stereo not given),-23.9%
O=C(O)C1C2C=CC(O2)C1C(=O)NCc1ccccc1Br (stereo not given),-8.1%
CCC(=O)Nc1c(C(=O)N2CCN(c3ccccn3)CC2)cnn1-c1ccc(Cl)cc1,-7.8%
COc1cccc(N2CC(C(=O)NC3CCCCC3)CC2=O)c1 (stereo not given),-8.8%
CCCCCCCSc1nsc(N)n1,1.9%
O=C(O)C1CCCN1c1ncnc2c1oc1ccccc12 (stereo not given),-17.9%
COC(=O)c1c(-n2c(C)cc(C=O)c2C)sc2c1CCCC2,-29.6%
Cc1cccc(NC2(C(F)(F)F)N=C(c3ccccc3)NC2=O)n1 (stereo not given),-3.1%
Cn1c(=O)cc(OCCCC(=O)N2CCN(c3ccccc3)CC2)c2ccccc21,-13.1%
COc1cccc(CSCC(=O)O)c1,-1.4%
CCC(C)(C)NC(=O)c1ccc(Br)o1,-9.2%
Nc1nc2sc3c(c2cc1C(=O)N1CCOCC1)CCCC3,u
Cc1cc(C)n2nc(N)c(N=Nc3ccc4c(c3)OCO4)c2n1,u
CCCn1c(NCc2cc(OC)ccc2OC)nc2ccccc21,-9.5%
CCOc1ccc(C(=O)Nc2c3c(nn2-c2ccc(F)cc2)CS(=O)C3)cc1 (stereo not given),-4.6%
CN1CCN(S(=O)(=O)c2ccc(Cc3ccc(S(=O)(=O)N4CCN(C)CC4)cc3)cc2)CC1,6.6%
CN1C(=O)C(O)(CC(=O)c2ccccc2O)c2cc(Br)ccc21 (stereo not given),-6.8%
CCOC(=O)N1CCN(C(=O)CSc2nnc(-c3cc(OC)cc(OC)c3)o2)CC1,-4.3%
O=C(CC(c1ccco1)S(=O)(=O)c1ccccc1)c1ccc(F)cc1 (stereo not given),-2.3%
CC(=O)CC(=O)Nc1cccc2c1CCCC2,-9.9%

# Quoted from the listing:
# HPGD block with COc1cccc(N2CC(C(=O)NC3CCCCC3)CC2=O)c1 (stereo not given) stands at -8.8%
# HPGD block with COC(=O)c1c(-n2c(C)cc(C=O)c2C)sc2c1CCCC2 stands at -29.6%
# HPGD block with COc1ccc(OC)c(S(=O)(=O)NCc2cn3cccc(C)c3n2)c1 stands at 2.1%

# (listing goes on)
SMILES,HPGD block
COC(=O)CCCC1=CC2=C(c3ccccc3)C(=O)C(C)(OC(=O)C3CCCC3)C(=O)C2=CN1CCN1CCOCC1 (stereo not given),-3.3%
O=C(COc1ccc2ccccc2c1)Nc1cccc2cccnc12,-9.2%
c1ccc2[nH]c(CSc3ncnc4c3oc3ccccc34)nc2c1,u
S=c1[nH]nc(CCc2ccc(Cl)cc2)o1,-13.6%
Cn1nc(C(F)(F)F)c2cc(NC(=O)OCC(C)(C)C)sc21,-10.1%
CC(=O)Nc1nnc(CCN2CCCCC2)s1,-3.6%
Cn1nnnc1SCC(=O)NC(C)(C)C,-1.8%
C/C(=N\NC(N)=S)c1ccc(Cl)s1,-4.1%
COc1ccc(Nc2nc(NCCO)nc(OC)n2)cc1,-14.4%
CS(=O)(=O)N(CC(N)=O)Cc1ccc(Cl)cc1,-6.0%
CCOC(=O)c1c(C)nc(SC)c(C#N)c1-c1ccccc1,-2.1%
COc1ccc(/C=N/NC(=O)Nc2cccc3nsnc23)c(OC)c1,u
COC(=O)c1c(C)[nH]c(C(=O)CN2CCOCC2)c1C,-3.6%
O=C(C1CCN(S(=O)(=O)c2cccc3cccnc23)CC1)N1CC=C(c2ccccc2)CC1,-13.7%
CCCC[C@@H]1C[C@H]1C(NC(=O)c1ccc(-c2ccccc2)cc1)c1ccc(-c2ccccc2)cc1 (stereo not given in full),-28.6%
O=C(C(=O)N1CCc2ccccc2C1)c1cn(CC(=O)N2CCCC2)c2ccccc12,-3.2%
CC1CCN(c2nnc(NC(=O)Cn3c(=O)oc4ccccc43)s2)CC1,-4.8%
CCC(C)(C)NC(=O)c1cc(C(=O)OC)cc([N+](=O)[O-])c1,2.4%
Cc1ccc(N(C)C(=O)c2ccc3c(Cl)c4c(nc3c2)CCC4)cc1C,-19.7%
CCN(CC)C(=O)CSc1nc2c(sc(=S)n2Cc2ccco2)c(=O)n1-c1ccccc1,-9.5%
Nc1c(S(=O)(=O)c2ccccc2)cnc2c(-c3ccc(F)cc3)cnn12,u
CCc1cc2c(SCC(=O)c3ccccc3)ncnc2s1,-41.5%
Cc1c(C(=O)NCc2ccccc2)oc2ccc(S(=O)(=O)N3CCCC3)cc12,-4.1%
CC(NC(=O)NC1CCCCC1)C(c1cccs1)N1CCN(C)CC1 (stereo not given),-6.6%
COc1cc(C(=O)Nc2ccc3c(c2)Cc2ccccc2-3)cc(OC)c1OC,-6.7%

# Next structures follow.
SMILES,HPGD block
COc1ccccc1OC1OC2COC(c3ccco3)OC2C(O)C1NC(C)=O (stereo not given),-1.0%
COc1cccc(CN2CCC(C(=O)N3CCN(c4ccccc4F)CC3)CC2)c1,4.1%
Cc1ccc(S(=O)(=O)N2CCCC(C(=O)NCCCN3CCCCC3C)C2)cc1 (stereo not given),-8.4%
CCc1c(C)sc(NC(=O)c2cnn3cccnc23)c1C#N,-3.6%
CC(C)CNC(=O)c1nc(-c2ccccc2)n(-c2ccccc2)n1,-1.8%
O=C(NCc1cccs1)Nc1ccc(Cl)cc1,-11.7%
Nn1c(SCC(=O)NC(=O)NCc2ccco2)nnc1-c1ccc(OC(F)F)cc1,-29.3%
N#Cc1nn(-c2ccccc2)nc1N1CCCCC1,u
CCOc1ccc(CCNC(=O)C2CCN(S(=O)(=O)N3CCC(C)CC3)CC2)cc1OCC,-7.6%
O=C(NCCN1CCCCCC1)c1ccc(CS(=O)(=O)c2ccc(Br)cc2)o1,-9.3%
CCNC(=O)CCC(N)C(=O)O (stereo not given),-4.1%
CC1(C)C(O)C=C[C@@]2(C)C1CC(=O)O[C@@]1(C)C3=CC(=O)OC(c4ccoc4)[C@]3(C)CCC21 (stereo not given in full),0.2%
COc1ccc2c(C(=O)CN3CC(C)OC(C)C3)c[nH]c2c1 (stereo not given),-0.3%
Cn1ccnc1C(=O)c1cccc([N+](=O)[O-])c1,-6.8%
COc1ccc(C2/C=C\CN(S(=O)(=O)c3ccc(C)cc3)CC(=O)N2Cc2cccc(F)c2)cc1 (stereo not given),-12.4%
CCOc1ccccc1NC(=O)COC(=O)CSc1ccc(Cl)cc1,-7.4%
C=CCNC(=S)Nc1sc2c(c1C(=O)OCC)CC(C)(CC)OC2 (stereo not given),-14.8%
CCC1(C)COC2(OC1)C(=O)Nc1ccccc12 (stereo not given),-1.1%
O=C(CCCNC(=O)/C(=C\c1ccccc1F)NC(=O)c1ccccc1)OCc1ccccc1,-17.1%
CN(C)c1ccc(/C=C2/C(=O)N(c3ccc([N+](=O)[O-])cc3)N=C2N2CCOCC2)cc1,-10.0%
COc1ccc(C2c3ccc4ccccc4c3Oc3ncn4nc(Cc5ccccc5)nc4c32)cc1OC (stereo not given),u
COc1ccc(-c2[nH]ncc2-c2cnc(C)s2)c(O)c1,-3.2%
Cc1ccccc1NC(=O)C1CCCN1S(=O)(=O)c1ccc2c(c1)n(C)c(=O)c(=O)n2C (stereo not given),u
CC1(C)CC(NC(=O)Cc2ccccc2[N+](=O)[O-])CC(C)(C)N1,-0.9%
O=C(NCc1ccco1)c1cccc(N2CCCC2=O)c1,-7.1%
CCN1C(=O)CC(N2CCOCC2)C1=O (stereo not given),2.7%
COC(=O)CNC(c1ccccc1)c1cc(Br)ccc1NS(=O)(=O)c1ccc(C)cc1 (stereo not given),-14.5%
